# SMN2 splice enh: qHTS Assay for Enhancers of SMN2 Splice Variant Expression; AID 1458, 2008; 210,000 compounds, 2.8% hits; Potency, µM (doses to about 46.1 µM), inactives show top-dose activity change, positive = activation, usual class: activators; HEK293 SMN2-luciferase splicing reporter, luminescence, 30-36 h; note: % of control where 0% means no effect; nearly all actives have a fitted effect of over 55% in size
#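 qHTS luciferase splicing reporter: luminescence rises when SMN2 exon 7 is included in transfected HEK293 cells. Compound exposure lasted 30-36 h at 37C, with 4.5 mM final sodium butyrate as control, followed by a ONE-Glo read.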
# ALDH1A1 block: qHTS Assay for Inhibitors of Aldehyde Dehydrogenase 1 (ALDH1A1) | Aldehyde dehydrogenase 1A1 (Homo sapiens), P00352 | Purified ALDH1A1, NADH fluorescence, propionaldehyde substrate | Potency, µM (series often up to 75.3 µM), inactives show at the top dose activity, negative = inhibition, most hits filed as inhibitors | 220,000 compounds, 7.3% hits; active = well fitted inhibition curve with a large enough effect, not every such curve was filed as active; inconclusive = small, poorly fitted or top-dose-only effect, or another doubt; inactive = no such curve, though single readings can be large or run the other way;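 note: plate controls were no enzyme wells and a reference inhibitor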
# Target sequence (P00352 whole entry, looked up): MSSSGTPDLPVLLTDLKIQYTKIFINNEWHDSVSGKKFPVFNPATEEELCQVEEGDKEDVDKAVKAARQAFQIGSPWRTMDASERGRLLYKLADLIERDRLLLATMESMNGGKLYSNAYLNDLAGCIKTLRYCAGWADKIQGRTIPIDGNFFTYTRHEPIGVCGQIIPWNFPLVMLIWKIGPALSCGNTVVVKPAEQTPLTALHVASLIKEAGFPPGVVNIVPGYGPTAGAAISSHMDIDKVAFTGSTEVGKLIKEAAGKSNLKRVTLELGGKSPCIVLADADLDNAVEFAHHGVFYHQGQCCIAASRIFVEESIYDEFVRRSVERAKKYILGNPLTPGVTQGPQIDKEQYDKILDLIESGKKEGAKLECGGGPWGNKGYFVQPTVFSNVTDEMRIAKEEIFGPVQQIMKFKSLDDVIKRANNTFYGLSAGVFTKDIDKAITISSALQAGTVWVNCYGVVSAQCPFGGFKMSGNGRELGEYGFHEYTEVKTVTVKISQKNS
# L3MBTL1 inh: qHTS Assay for the Inhibitors of L3MBTL1 | 230,000 compounds, 0.66% hits | AlphaScreen L3MBTL1–H3K9me1 peptide binding | Lethal(3)malignant brain tumor-like protein 1 (Homo sapiens), Q9Y468 | Potency, µM (doses to about 57.1 µM), for the others: top-dose activity, negative = inhibition, actives largely listed as inhibitors; note: % is set by controls: 0 for no effect and ±100 for the full control effect; nearly all actives have a fitted effect of over 60% in size
#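 L3MBTL1 50 nM + b-AHA-H3(1-15)K9me1 75 nM, 30 min RT; compound added, 30 min RT; streptavidin donor/Ni-chelate acceptor beads 10 ug/mL each final, 30 min RT dark; AlphaScreen read.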
# KinaseGlo FLuc: Counterscreen for Luciferase (Kinase-Glo TM) Inhibition; Luciferin 4-monooxygenase (Photuris pensylvanica), Q27757; Kinase-Glo luciferase, ATP luminescence, 8 min; Potency, µM (series often up to 38.3 µM), inactives show at the top dose activity change, negative = inhibition, hits mostly inhibitors; 200,000 compounds, 0.28% hits; AID 1379, 2008; note: % is set by controls: 0 for no effect and ±100 for the full control effect; nearly all actives have a fitted effect of over 60% in size
#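 Substrate mix (final 50 mM imidazole pH 7.2, 50 mM KCl, 7 mM MgCl2, 10 uM ATP, 0.01% Tween 20, 0.05% BSA) plus pin-tool compound, then Kinase-Glo detection mix; 8 min ambient, luminescence read.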
# RECQ1 inh: qHTS Assay for Inhibitors of RecQ-Like Dna Helicase 1 (RECQ1); RECQ1 DNA unwinding, red fluorescence kinetic read; Potency, µM (titrated, usually from 57.3 µM), for inactives: at the top dose activity, negative = inhibition, actives largely listed as inhibitors; 240,000 compounds, 0.54% hits; AID 2549, 2010;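 note: plate controls were vehicle for no effect and no enzyme for full effect; nearly all actives have a fitted effect of over 30% in size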
#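 RECQ1T1 50 nM; forked duplex (20 bp + 30-nt ss tails) 200 nM, ATP 2 mM final; pH 8.0, 2 mM MgCl2, 2.5 ug/ml poly(dI-dC); 15 min compound preincubation; discontinuous kinetic read over 2 h at RT.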
# Tau ThT inhib: qHTS for Inhibitors of Tau Fibril Formation, Thioflavin T Binding | recombinant tau K18 P301L (four-repeat tau fragment), heparin-induced fibrillization, ThT fluorescence | Microtubule-associated protein tau (Homo sapiens), P10636 | 270,000 compounds, 2.1% hits | Potency, µM (series often up to 57.4 µM), without a hit: top-dose activity, negative = inhibition, hits mostly inhibitors; note: % is set by controls: 0 for no effect and ±100 for the full control effect; nearly all actives have a fitted effect of over 55% in size
# Target sequence (P10636 561-689 P618L limits assumed): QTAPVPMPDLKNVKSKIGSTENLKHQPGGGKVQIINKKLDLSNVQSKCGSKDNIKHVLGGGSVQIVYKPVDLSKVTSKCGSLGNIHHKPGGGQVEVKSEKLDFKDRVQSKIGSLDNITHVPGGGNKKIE
#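 K18 P301L tau (15 uM + 0.24 uM Alexa 594-tagged), heparin 20 uM, NaOAc pH 7, 6 h 37 C; ThT 30 uM, 1 h RT, ex 450/em 510 nm.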
# LMNA splice mod: qHTS Assay for Modulators of Lamin A Splicing | HeLa LMNA splicing GFP/RFP minigene ratio, 48 h | Potency, µM (doses to about 46.1 µM), for the others: at the highest dose ratio change, negative = inhibition, hits mostly inhibitors | 200,000 compounds, 0.01% hits; active = well fitted inhibition curve with a large enough effect in the signal ratio, with a control signal flat, not every such curve was filed as active; inconclusive = small, poorly fitted or top-dose-only effect, or effect the other way, or a change in a side signal; the % refers to the signal ratio; note: % is set by controls: 0 for no effect and ±100 for the full control effect
#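 Read-out is the ratio of GFP to DsRed2 object intensity, acquired by 488 nm laser-scanning cytometry on HeLa lamin A-EGFP minigene reporter cells. Compound incubation 48 hrs at 37 °C in Opti-MEM with 2% FBS; DMSO 0.5% final.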
# * marks the source's active call; other numbers are inactive results; i = inactive; ? = inconclusive; · = no result given; [ ] = another dose, or the depositor's remark. Unless noted, calls come from the whole dose curve; as a rule, active = well fitted curve in the direction sought with a large enough effect; inconclusive = small, poorly fitted or top-dose-only effect, or another doubt; inactive = no such curve, though single readings can be large; an effect the other way counts as inactive or inconclusive. Potency is the fitted concentration of half-maximal effect.
SMILES,SMN2 splice enh,ALDH1A1 block,L3MBTL1 inh,KinaseGlo FLuc,RECQ1 inh,Tau ThT inhib,LMNA splice mod
O=C(O)c1cccc(Oc2ccc([N+](=O)[O-])cc2)c1,-11%,-1%,12%,3%,-3%,-1%,8%
C=CCc1cc(Cl)ccc1OCCNCCN1CCOCC1,·,?,-13%,-7%,-7%,-11%,-3%[46 µM]
COc1ccc(CN2CCN(S(=O)(=O)c3ccccc3)CC2)cc1Br,-10%,?,·,20%,-10%,-6%,1%
CCC1=Nc2ccccc2NC2=C1C(=O)CCC2,23%,11µM*,·,-11%,i,25µM*,8%
O=S(=O)(Cc1ccccc1Cl)c1ncn[nH]1,·,·,·,·,12%,·,·
COCCn1c(C)cc(C(=O)CSc2ncn[nH]2)c1C,5.6µM*,-4%,-3%,3%,i,-10%,1%
CN(C)CCOCCOc1ccc(Cl)c2ccccc12,-46%[inhibitor],?,-14%,-4%,i,-7%,7%[46 µM]
Cn1cc([N+](=O)[O-])c(C(=O)N/N=C/c2ccc3c(c2)OCO3)n1,0%,-5%,8%,-3%,i,-14%,3%[46 µM]
CC(C)C[C@H](NC(=O)c1[nH]cnc1C(=O)N[C@@H](C)C(=O)OC(C)(C)C)C(=O)OCc1ccccc1,·,·,·,·,i,-4%,·
Cc1nc(C(Cl)(Cl)Cl)nc2[nH]ccc(=O)c12,0%,0%,-5%,5%,-1%,-7%,?
COc1ccc(OCC(=O)Nc2cccc(OC)c2)cc1,·,-2%,·,-13%,-10%,-15%,-7%
CCN(CC)CCCSc1nc2ccccc2s1,?,-13%,·,0%,-12%,-5%,9%[46 µM]
COC(=O)c1cc(NC(=O)CN(c2cccc(OC)c2)S(=O)(=O)c2ccccc2)ccc1Cl,·,-4%,4%,·,-14%,-3%,?
CCC(NS(=O)(=O)c1c(C)[nH]c(=O)[nH]c1=O)C12CC3CC(CC(C3)C1)C2 (configuration not stated),13%,3%,·,5%,i,-3%,0%
CCN(CC)CC(=O)NCC1(c2ccccc2)CCCC1,-2%,5%,0%,-2%,6%,1%,27%[46 µM]
Cc1ccc(S(=O)(=O)N2CCN(C(C)CC(=O)O)CC2)cc1 (configuration not stated),18%,-13%,3%,4%,-10%,-2%,6%[46 µM]
CCn1nc(NC(=O)c2ccccc2)c2cc3cccc(C)c3nc21,·,?,54%[activator],·,-17%,?,·
CC(=O)Nc1nnc(-c2ccc3c(c2)CCCC3)o1,?,-8%,-1%,11%,-5%,-13%,-1%
COc1ccc(-c2cn[nH]c2-c2ccc(OCc3ccccc3F)cc2O)cc1OC,·,-3%,-18%,·,-3%,-11%,·
COc1ccc(C(C#N)Nc2ccccc2)cc1 (configuration not stated),·,?,·,4%,-12%,-15%,-1%
CN(C)CCOc1ccc(Cl)cc1C(C)(C)C,-2%,-4%,-4%,-1%,13%,-7%,5%[46 µM]
COc1ccc(CC(=O)Nc2cc(S(=O)(=O)N3CCCCC3)ccc2N2CCN(C)CC2)cc1,6%,?,4%,2%,-17%,-5%,8%
COc1ccc(NC(=S)NNC(=O)c2nnn(-c3ccccc3)c2C)cc1,3%,?,-9%,1%,-7%,?,8%
Cc1ccccc1OCC(=O)Nc1ccccc1-c1ccccc1,?,8.9µM*,0%,?,i,?,9%
Cc1ccc(S(=O)(=O)/N=S(/c2ccccc2)C(C)C)cc1 (configuration not stated),·,19µM*,2%,·,i,?,?

# Going on with the list:
SMILES,SMN2 splice enh,ALDH1A1 block,L3MBTL1 inh,KinaseGlo FLuc,RECQ1 inh,Tau ThT inhib,LMNA splice mod
CCOc1ccc(CN2CCC(C(=O)N3CCN(c4ccccc4F)CC3)CC2)cc1OC,-22%,-8%,-3%,-1%,-1%,-7%,21%
Cc1ccc(CNc2ncc(-c3ccccc3)n2C)o1,·,?,-8%,-4%,-3%,-10%,-7%[46 µM]
CCOC(=O)C1(Cc2ccccc2)CCCN(Cc2ccncc2)C1 (configuration not stated),·,1%,6%,0%,i,-5%,·
COC(=O)c1ccc(NS(=O)(=O)c2ccc(Cl)cc2)o1,14%,9%,·,0%,i,-10%,·
O=C(Nc1ccc2c(c1)Cc1ccccc1-2)c1ccco1,11µM*,2%,-1%,-10%,-4%,-10%,-8%
Cc1[nH]n2c(=O)c3c(nc2c1-c1ccccc1)CCC3,-14%,10%,·,2%,6%,-16%,-15%
COc1ccc(NC(C)=O)cc1NC(C)C(=O)Nc1ccc(F)cc1 (configuration not stated),-2%,9%,·,-1%,-12%,-5%,3%
Cc1nc2ccc(N)cc2c(=O)n1Cc1ccc(Cl)cc1,?,?,·,0%,-4%,-10%,-7%
CC(=O)N1CCC(=O)N(C(C)C)c2ccccc21,2%,-3%,-1%,-3%,-1%,-2%,-1%
O=C(NNc1ccccn1)C(=O)NNS(=O)(=O)c1ccc(Cl)cc1,-25%,5%,-2%,-5%,-12%,-5%,?
Cc1csc2c(N3CCN(C(=O)Nc4ccc(OC(F)(F)F)cc4)CC3)ncnc12,·,-9%,1%,·,7%,?,·
CCC(=O)NS(=O)(=O)c1cccnc1Nc1ccccc1Cl,·,5%,·,-3%,-4%,-5%,5%

# In the list so far, 9 contain an aryl methoxy group.
SMILES,SMN2 splice enh,ALDH1A1 block,L3MBTL1 inh,KinaseGlo FLuc,RECQ1 inh,Tau ThT inhib,LMNA splice mod
COc1ccc(CN2CCN(S(=O)(=O)c3ccccc3)CC2)cc1Br,-10%,?,·,20%,-10%,-6%,1%
COc1ccc(OCC(=O)Nc2cccc(OC)c2)cc1,·,-2%,·,-13%,-10%,-15%,-7%
COC(=O)c1cc(NC(=O)CN(c2cccc(OC)c2)S(=O)(=O)c2ccccc2)ccc1Cl,·,-4%,4%,·,-14%,-3%,?
COc1ccc(-c2cn[nH]c2-c2ccc(OCc3ccccc3F)cc2O)cc1OC,·,-3%,-18%,·,-3%,-11%,·
COc1ccc(C(C#N)Nc2ccccc2)cc1 (configuration not stated),·,?,·,4%,-12%,-15%,-1%
COc1ccc(CC(=O)Nc2cc(S(=O)(=O)N3CCCCC3)ccc2N2CCN(C)CC2)cc1,6%,?,4%,2%,-17%,-5%,8%
COc1ccc(NC(=S)NNC(=O)c2nnn(-c3ccccc3)c2C)cc1,3%,?,-9%,1%,-7%,?,8%
CCOc1ccc(CN2CCC(C(=O)N3CCN(c4ccccc4F)CC3)CC2)cc1OC,-22%,-8%,-3%,-1%,-1%,-7%,21%
COc1ccc(NC(C)=O)cc1NC(C)C(=O)Nc1ccc(F)cc1 (configuration not stated),-2%,9%,·,-1%,-12%,-5%,3%

# Given bar-delimited: entries from further up.
SMILES | SMN2 splice enh | ALDH1A1 block | L3MBTL1 inh | KinaseGlo FLuc | RECQ1 inh | Tau ThT inhib | LMNA splice mod
COc1ccc(NC(C)=O)cc1NC(C)C(=O)Nc1ccc(F)cc1 (configuration not stated) | -2% | 9% | · | -1% | -12% | -5% | 3%
Cc1nc2ccc(N)cc2c(=O)n1Cc1ccc(Cl)cc1 | ? | ? | · | 0% | -4% | -10% | -7%

# Screening data deposited in PubChem by National Center for Advancing Translational Sciences (NCATS).

# Not all compounds are listed (hit frequency here may not be typical).
